From PubChem BioAssay
UCH37 inh – inhibitors of human deubiquitinating enzyme UCH37 | Q9Y5K5 | purified proteasome/UCH37, Ub-AMC cleavage fluorescence | inhibition, % (test concentration not listed) | 330,000 tested, 0.33% active;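 active = mean of two replicates above 20%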;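 also: 0% = compound-free wells with enzyme and 100% = wells lacking proteasome; stock transfer was 100 nL into about 20 µL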
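Schedule: 30 min plus 25 min, room temperature / Material: human UCH37 within purified proteasomes / Technique: AMC fluorescence intensity at 355/460 nm / Buffer or medium: pH 7.4 Tris-HCl (50 mM) with ovalbumin, ATP-MgCl2, DTT / Controls: wells without proteasome as full block, compound-free enzyme plus substrate as uninhibited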
LANA-H2A inh – blocks KSHV LANA binding to histone H2A/H2B | inhibition, % (no concentration beside the values) | cell-free LANA-H2A/H2B peptide, fluorescence polarization | AID 2629 | 320,000 tested, 0.6% active | Q9QR71; in the data active = inhibition mostly above about 10%, no sharp cut-off; inactive = mostly below about 6.7%;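 also: stock transfer was 7.5 nL into about 10 µL; 0% = median of vehicle wells and 100% = median of positive control wells; one replicate is shown; the record names a cut of 25% in any replicate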
Target sequence (Q9QR71 whole entry, looked up): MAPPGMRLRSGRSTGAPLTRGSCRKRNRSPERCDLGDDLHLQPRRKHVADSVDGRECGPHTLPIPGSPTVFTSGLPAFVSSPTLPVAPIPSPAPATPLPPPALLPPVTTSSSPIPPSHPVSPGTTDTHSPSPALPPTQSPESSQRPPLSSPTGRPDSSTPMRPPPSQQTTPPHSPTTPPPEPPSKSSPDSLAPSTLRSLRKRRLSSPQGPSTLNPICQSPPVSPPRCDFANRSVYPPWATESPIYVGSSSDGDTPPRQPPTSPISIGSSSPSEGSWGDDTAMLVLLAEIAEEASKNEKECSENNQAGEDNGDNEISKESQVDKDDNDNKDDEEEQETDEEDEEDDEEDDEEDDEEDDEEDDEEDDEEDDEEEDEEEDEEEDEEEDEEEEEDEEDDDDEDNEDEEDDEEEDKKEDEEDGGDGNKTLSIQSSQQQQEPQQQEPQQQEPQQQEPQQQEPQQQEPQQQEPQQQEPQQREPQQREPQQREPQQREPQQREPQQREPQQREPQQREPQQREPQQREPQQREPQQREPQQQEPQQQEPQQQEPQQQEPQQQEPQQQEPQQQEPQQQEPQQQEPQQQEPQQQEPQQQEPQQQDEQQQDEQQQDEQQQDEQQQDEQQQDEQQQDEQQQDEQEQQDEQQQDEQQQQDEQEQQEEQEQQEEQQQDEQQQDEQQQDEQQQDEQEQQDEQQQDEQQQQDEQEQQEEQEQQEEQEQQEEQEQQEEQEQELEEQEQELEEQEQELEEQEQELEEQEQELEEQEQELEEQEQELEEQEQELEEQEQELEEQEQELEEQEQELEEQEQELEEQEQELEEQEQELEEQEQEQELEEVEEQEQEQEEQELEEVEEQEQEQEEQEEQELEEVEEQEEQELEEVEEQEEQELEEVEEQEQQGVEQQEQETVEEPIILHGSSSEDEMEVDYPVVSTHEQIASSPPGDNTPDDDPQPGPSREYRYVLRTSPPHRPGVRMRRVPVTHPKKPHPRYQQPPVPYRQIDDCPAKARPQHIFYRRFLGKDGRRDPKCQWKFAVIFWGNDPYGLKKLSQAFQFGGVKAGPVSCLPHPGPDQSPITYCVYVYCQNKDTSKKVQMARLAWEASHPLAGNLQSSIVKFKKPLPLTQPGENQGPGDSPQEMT
E coli growth – blocks Escherichia coli growth; OD600, 23 h; stronger effect = lower value; OD600 absorbance (concentration not given with the values); 330,000 tested, 0.21% active; AID 1053175;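 active = OD600 absorbance below the run mean of sample wells minus 3.6 SD, in any replicate, cut at about 0.56 in these data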;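 also: stock transfer was 300 nL into about 60 µL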
A1 inh – inhibitors of the anti-apoptotic protein A1, read as caspase activation | MEF A1-2A-BIM cells, Caspase-Glo 3/7 luminescence, 3 h; percent of clofoctol response, vehicle zero | caspase activation, % (no concentration beside the values) | 330,000 tested, 0.066% active | AID 2462;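 active = over half of replicate activation scores above 10%, or exactly half above 10 with the replicate mean above 10; inconclusive = replicate mean below 10 yet half the replicates above 10; inactive = over half of replicates below 10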;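 also: wells of about 30 µL received 50 nL stock; many hits fall short of the cut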
HNF4A DNA FP – change in binding of human HNF4 alpha to DNA; activity change, % at 10 µM; 360,000 tested, 0.3% active; HNF4a-FITC DNA binding, fluorescence polarization, 1 h; P41235; in the data active = activity change above about 30%, passing the limit was not always enough;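 also: controls were the assay level and a saturating level of protein; the project sought stronger binding though the title names inhibitors; some compounds called inactive have numbers as strong as hits; positive values seem to mean higher polarization but the record does not say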
Vif A3G – inhibitors of Vif binding to APOBEC3G peptide, primary screen, biochemical, TR-FRET, GST-Vif 1-94, biotin-A3G peptide, dose response retest (AID 1117319); TR-FRET GST-Vif / biotin-A3G peptide binding; higher % means a stronger effect; test concentration not given here; strong numbers were not always called active; 260,000 tested, 0.57% active; one-dose inhibition, %; IC50 in µM for titrated hits;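 active = above the screen mean plus three standard deviations and confirmed in dose response; inconclusive = results disagree or hit not tested in dose response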;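 also: Vif residues 1-94 fused to GST binding biotinylated APOBEC3G peptide 110-148; 0% = full assay without inhibitor and 100% = GST in place of GST-Vif; retest series ran down from 100 µM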
Beta2AR agonist – agonists of human beta-2 adrenergic receptor inducing internalization. response, % (no concentration beside the values). P07550. 340,000 tested, 0.43% active. Am2.2-beta2AR cells, FAP receptor internalization, flow cytometry; reference of the scale not given here;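 active = response above a set limit, near 3 SD of response in nonfluorescent compounds, cut at about 42% in these data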;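 also: stock transfer was 100 nL into about 11 µL; a reference agonist was the positive control; negative values mostly stem from fluorescent compounds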
* marks the source's active call; other numbers are inactive results; & = joins results of further samples; ! = not active in a repeat.

For Cc1cccc2nc(CSc3ccccc3N)cn12 the results were UCH37 inh -2.1, LANA-H2A inh -0.6, E coli growth 0.71, A1 inh -1.9, HNF4A DNA FP 0.6, Vif A3G -9% and Beta2AR agonist 8.
`CC(C)Cn1c(SCC(=O)Nc2cccnc2Cl)nnc1-c1ccco1` gave UCH37 inh 3.7, LANA-H2A inh -2.4, E coli growth 0.68, A1 inh 0.0, HNF4A DNA FP 2.7, Vif A3G 46% and Beta2AR agonist -2.
Cn1c(NC(=O)c2ccc(Cl)cc2)cc(=O)n(C)c1=O was read as UCH37 inh 4.4, LANA-H2A inh 0.9, E coli growth 0.7, A1 inh 0.5, HNF4A DNA FP 1.7 and Beta2AR agonist 3.
Cc1ccc(CSc2sc(C(=O)c3ccccc3)c(N)c2C#N)cc1 was read as UCH37 inh -11, E coli growth 0.74, A1 inh 0.2, HNF4A DNA FP 9.7, Vif A3G -5% and Beta2AR agonist 6.
O=C(NCc1ccncc1)c1cc(F)c(F)cc1Cl was read as UCH37 inh 0.6, LANA-H2A inh 2.6, E coli growth 0.72, A1 inh -0.4, HNF4A DNA FP -0.6, Vif A3G -5% and Beta2AR agonist 0.
`COc1cc(OC)cc(C(=O)N2CCN=C2SCc2cccnc2)c1` gave UCH37 inh 5.0, LANA-H2A inh 4.1, E coli growth 0.76, A1 inh 0.6, HNF4A DNA FP 4.9, Vif A3G inconclusive and Beta2AR agonist -6.
For COC(=O)CC1C(=O)NCCN1C(=S)NC(=O)c1ccccc1[N+](=O)[O-] (stereo unspecified) the results were UCH37 inh -15, LANA-H2A inh 6.1, E coli growth 0.7, A1 inh -0.3, HNF4A DNA FP -1.9, Vif A3G 13% and Beta2AR agonist -4.
Screening CC(=O)CCC(=O)N1CCC(n2nccc2NC(=O)c2ccccc2C)CC1 returned UCH37 inh 0.6, LANA-H2A inh -4.1, E coli growth 0.67, A1 inh -0.2, HNF4A DNA FP 0.4 and Beta2AR agonist -2.
For O=C(O)c1cccc(NC(=O)c2ccc(S(=O)(=O)c3ccccc3)cc2)c1 the results were UCH37 inh 7.4, LANA-H2A inh 2.2, E coli growth 0.67, A1 inh -4.4, HNF4A DNA FP -0.3, Vif A3G inconclusive and Beta2AR agonist 3.
For CCCOC(=O)c1c(NC(=O)CCCn2nc([N+](=O)[O-])cc2C)sc(C(=O)OC)c1C the results were UCH37 inh 5.1, LANA-H2A inh 3.2, E coli growth 0.7, A1 inh 0.0, HNF4A DNA FP -1.1, Vif A3G -7% and Beta2AR agonist 2.
Screening CCOC(=O)N1CCC(Nc2cccc(SC)c2)CC1 returned UCH37 inh 4.3, LANA-H2A inh 6.2, E coli growth 0.72, A1 inh 0.8, HNF4A DNA FP -3.9, Vif A3G 24% and Beta2AR agonist 3.
COc1ccc(OC)c(CN2C(=O)c3ccccc3C2C(=O)NCc2cccnc2)c1 (stereo unspecified) was read as UCH37 inh 2.6, LANA-H2A inh -0.8, E coli growth 0.7, A1 inh -0.3, HNF4A DNA FP -2.9, Vif A3G -10% and Beta2AR agonist 0.
For COC(=O)C(O)(CC(=O)Nc1ccc(Cl)cc1Cl)C(F)(F)F (stereo unspecified) the results were UCH37 inh 5.9, LANA-H2A inh 3.9, E coli growth 0.65, A1 inh -0.1, HNF4A DNA FP -2.2, Vif A3G -4% and Beta2AR agonist 0.
For CCOC(=O)C1=C(N)OC2=C(C(=O)CC(C)(C)C2)C1c1ccco1 (stereo unspecified) the results were UCH37 inh 4.8, LANA-H2A inh 0.8, E coli growth 0.64, A1 inh -1.2, HNF4A DNA FP 4.2, Vif A3G 7% and Beta2AR agonist 2.
COC(=O)Cn1ncc(N2C3CC(CC(C)(C)C3)C2C)c(Cl)c1=O (stereo unspecified) was read as UCH37 inh 2.3, LANA-H2A inh -5.1, E coli growth 0.65, A1 inh 0.2, HNF4A DNA FP -0.3, Vif A3G -12% and Beta2AR agonist 3.
COc1ccccc1N1CCN(CC(O)COc2cccc3ccccc23)CC1 (stereo unspecified) was read as UCH37 inh 2.1&1.6, LANA-H2A inh 24*!, E coli growth 0.66&0.64, A1 inh 0.9&1.4, HNF4A DNA FP -2.3&2.0, Vif A3G 6%&-9% and Beta2AR agonist -11&-1.
COc1ccc(OC)c(CC(=O)N2CCc3cc(OC)c(OC)cc3C2)c1 was read as UCH37 inh 1.0, LANA-H2A inh 1.6, E coli growth 0.69, A1 inh 1.1, HNF4A DNA FP -2.3 and Beta2AR agonist 3.
For COc1ccc(-c2cc(C(F)(F)F)nc(N3CCN(c4ccc(F)cc4)CC3)n2)cc1OC the results were UCH37 inh -8.0, E coli growth 0.73, HNF4A DNA FP -1.8, Vif A3G 5% and Beta2AR agonist -3.
Screening COc1ccc(Br)cc1CN(C)C(=O)c1ccccc1OCc1c(C)noc1C returned UCH37 inh 4.8, LANA-H2A inh -0.7, E coli growth 0.72, A1 inh 0.3, HNF4A DNA FP 2.1, Vif A3G 4% and Beta2AR agonist 11.
O=C(/C=C/c1ccccc1)OCN1C(=O)c2ccccc2C1=O was read as UCH37 inh -0.4, LANA-H2A inh -3.3, E coli growth 0.67, A1 inh 0.7, HNF4A DNA FP 0.2 and Beta2AR agonist -9.
`COc1cccc(N2C(=O)CN(Cc3ccc(OC)c(OC)c3)C2=S)c1` gave UCH37 inh 0.5, LANA-H2A inh -0.7, E coli growth 0.67, A1 inh -0.3, HNF4A DNA FP 0.3, Vif A3G -4% and Beta2AR agonist 0.
CSc1nsc(SCC(=O)Nc2cccc(C(=O)O)c2)n1 was read as UCH37 inh 4.8, LANA-H2A inh 3.4, E coli growth 0.71, A1 inh -1.1, HNF4A DNA FP -1.5 and Beta2AR agonist -1.
O=[N+]([O-])c1ccc(-c2cnc[nH]2)cc1 was read as UCH37 inh 14, LANA-H2A inh -1.0, E coli growth 0.65, A1 inh -0.8, HNF4A DNA FP -0.8, Vif A3G 10% and Beta2AR agonist 1.
`NC(=O)NC(=O)CSc1nnc(-c2ccco2)n1Cc1ccccc1` gave UCH37 inh 4.3, LANA-H2A inh 1.8, E coli growth 0.73, A1 inh 0.4, HNF4A DNA FP 0.8, Vif A3G 15% and Beta2AR agonist -3.
For Cc1cc(C)nc(SCc2csc(-c3ccccc3)n2)n1 the results were UCH37 inh 1.9, LANA-H2A inh -1.4, E coli growth 0.65, A1 inh -5.6, HNF4A DNA FP 0.7, Vif A3G -11% and Beta2AR agonist -10.
`COc1ccccc1CNC(=O)CCCn1nc(C)n2ccnc2c1=O` gave UCH37 inh 1.8, LANA-H2A inh -0.3, E coli growth 0.75, A1 inh -1.2, HNF4A DNA FP -0.5 and Beta2AR agonist 5.
Screening CN(C)c1cccc2c(C=C(C#N)C#N)ccc(N(C)C)c12 returned UCH37 inh 8.9, LANA-H2A inh -7.0, E coli growth 0.66, A1 inh 0.8, HNF4A DNA FP -0.5, Vif A3G 28% and Beta2AR agonist 7.
`Cc1cc(/C=C(\C#N)C(=O)N2CCOCC2)c(C)n1C1CCCC1` gave UCH37 inh 11, LANA-H2A inh -1.2, E coli growth 0.64, A1 inh -5.4, HNF4A DNA FP 7.0, Vif A3G 29% and Beta2AR agonist 1.
`COc1cc(NC(=O)c2cc(Cl)ccc2Cl)ccc1-c1cc2ccccc2oc1=O` gave UCH37 inh -65, LANA-H2A inh 0.5, E coli growth 0.72, A1 inh 0.3, HNF4A DNA FP 1.0, Vif A3G 15% and Beta2AR agonist 5.
`O=C(O)c1ccccc1C(=O)Nc1ccccc1` gave UCH37 inh 1.6, LANA-H2A inh 2.7, E coli growth 0.69, A1 inh -0.2, HNF4A DNA FP -4.0, Vif A3G -5% and Beta2AR agonist 3.
`O=C(NCc1cccnc1)c1c(O)c2cccc3c2n(c1=O)CCC3` gave UCH37 inh -4.1, LANA-H2A inh -7.9, E coli growth 0.65, A1 inh 1.8, HNF4A DNA FP 4.1 and Beta2AR agonist -3.
For Cc1ccnc(NC(=O)c2ccc(Cl)c([N+](=O)[O-])c2)c1 the results were UCH37 inh 2.8, LANA-H2A inh 22*, E coli growth 0.68, A1 inh -2.4, HNF4A DNA FP 2.8, Vif A3G -1% and Beta2AR agonist 0.
For COc1ccc(C(=O)Nc2ccccc2C(=O)NCCN2CCOCC2)cc1OC the results were UCH37 inh -2.9, LANA-H2A inh -1.8, E coli growth 0.72, A1 inh 2.0, HNF4A DNA FP 2.6 and Beta2AR agonist -3.
`Cc1cccc(/C=N/NC(=O)c2ccc(F)cc2)n1` gave LANA-H2A inh -0.1, A1 inh 0.0, HNF4A DNA FP 0.8, Vif A3G -15% and Beta2AR agonist -1.
`C/C(=N\Nc1ccccn1)c1ccc(C(C)C)cc1` gave LANA-H2A inh 4.9, A1 inh 0.0, HNF4A DNA FP -1.4, Vif A3G 18% and Beta2AR agonist -2.
O=C(COC(=O)CCc1nc2ccccc2s1)Nc1ncc(Cl)cc1Cl was read as UCH37 inh 1.3, LANA-H2A inh 3.0, E coli growth 0.69, A1 inh -0.1, HNF4A DNA FP 0.3 and Beta2AR agonist 3.
`CCOC(=O)c1[nH]c2ccccc2c1N=CN(CC)CC` gave UCH37 inh 2.0, LANA-H2A inh -2.7, E coli growth 0.68, A1 inh -0.5, HNF4A DNA FP 5.4, Vif A3G -1% and Beta2AR agonist -3.
Screening CCCCOc1ccc(C2(C)NC(=O)N(C)C2=O)cc1 (stereo unspecified) returned UCH37 inh 2.6, LANA-H2A inh -5.4, E coli growth 0.7, A1 inh -0.5, HNF4A DNA FP -1.5, Vif A3G -5% and Beta2AR agonist -1.
`Cc1ccc(-n2nnc3c(=O)n(CC(=O)c4ccccc4)cnc32)cc1` gave UCH37 inh 5.7, LANA-H2A inh -1.3, E coli growth 0.81, A1 inh -0.1, HNF4A DNA FP -1.5, Vif A3G 79% and Beta2AR agonist 6.
Cc1nn(Cc2ccccc2)c(Cl)c1/C=N/NC(=O)c1cccnc1 was read as LANA-H2A inh 1.9, A1 inh -1.2, HNF4A DNA FP 1.2, Vif A3G -1% and Beta2AR agonist 5.
Screening CCCN(Cc1nnc(-c2ccccc2Cl)o1)C(=O)c1oc2ccccc2c1C returned UCH37 inh 2.0, LANA-H2A inh 1.8, E coli growth 0.7, A1 inh 0.9, HNF4A DNA FP 1.0, Vif A3G -3% and Beta2AR agonist 0.
CCOC(=O)C1C(c2ccc(C)o2)NC(=O)NC1(O)C(F)(F)F (stereo unspecified) was read as UCH37 inh 0.3, LANA-H2A inh -0.6, E coli growth 0.66, A1 inh -0.2, HNF4A DNA FP 3.7, Vif A3G inconclusive and Beta2AR agonist 3.
`COc1cccc(/C=N/NC(=O)c2nnn(-c3nonc3N)c2-c2cccs2)c1` gave LANA-H2A inh 2.3, A1 inh 1.3, HNF4A DNA FP -0.1 and Beta2AR agonist 2.

Sorted by heavy-atom count (descending): three of the compounds above
CCOC(=O)C1C(c2ccc(C)o2)NC(=O)NC1(O)C(F)(F)F (stereo unspecified) was read as UCH37 inh 0.3, LANA-H2A inh -0.6, E coli growth 0.66, A1 inh -0.2, HNF4A DNA FP 3.7, Vif A3G inconclusive and Beta2AR agonist 3.
Screening CN(C)c1cccc2c(C=C(C#N)C#N)ccc(N(C)C)c12 returned UCH37 inh 8.9, LANA-H2A inh -7.0, E coli growth 0.66, A1 inh 0.8, HNF4A DNA FP -0.5, Vif A3G 28% and Beta2AR agonist 7.
For Cc1cc(C)nc(SCc2csc(-c3ccccc3)n2)n1 the results were UCH37 inh 1.9, LANA-H2A inh -1.4, E coli growth 0.65, A1 inh -5.6, HNF4A DNA FP 0.7, Vif A3G -11% and Beta2AR agonist -10.
